D2 PAM = positive allosteric modulators of human D2 dopamine receptor; P14416; DiscoveRx D2 beta-arrestin cells, luminescence, 90 min; 100% = 57 uM dopamine signal; potentiation, % (no concentration beside the values); actives 0.23% (n = 360,000); AID 624464; active = potentiation of 50% or more; inconclusive = 30% to 50%; inactive = 30% or less;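 note: compound concentration not given in the record; tested on top of an EC20 dose of dopamine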
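PathHunter beta-arrestin assay in DiscoveRx D2 cells. Compounds were added with an EC20 of dopamine (50 nM final) for 90 min at 37 deg C. Luminescence was read 1 h after detection reagent, with 57 uM dopamine as the EC100 control.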
D2 agonist = agonists of human D2 dopamine receptor (beta-arrestin); P14416; DiscoveRx PathHunter D2 beta-arrestin, luminescence, 90 min; 100% = 57 uM dopamine signal; activation, % (concentration not given with the values); actives 0.084% (n = 360,000); AID 624465; in the data active = activation above about 40%; inconclusive = about 15% to 40%; inactive = below about 15%; note: compound concentration not given in the record; the text of the record calls up to 30% inactive
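DiscoveRx PathHunter D2 beta-arrestin cells (2,100/well) attached overnight, then compound-stimulated 90 min at 37 C in HBSS/10 mM HEPES/0.1% Tween-20 buffer; beta-galactosidase complementation read by luminescence after 1 h at ambient temperature. Dopamine 57 uM final (EC100) as control.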
PINK1 modulator = changes PINK1 expression | actives 0.2% (n = 410,000) | PINK1 immunofluorescence, high-content cytometry, 24 h | Potency, µM (titrated, usually from 76.6 µM), without a hit: at the highest dose activation (PINK1 increase), most hits filed as activators; active = well fitted activation curve with a large enough effect; inconclusive = small, poorly fitted or top-dose-only effect; inactive = flat fitted curve, though single readings scatter; cell line not stated here;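 note: potency is the fitted concentration of half-maximal effect; % of control where 0% means no effect; nearly all actives have a fitted effect of over 65% in size; a mitochondrial uncoupler was the plate control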
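PINK1 protein level read as immunofluorescence by microplate cytometer in a fixed, stained stable cell line after 24 h exposure to five compound concentrations, with CCCP as control.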
Sfp PPTase inh = inhibitors of Bacillus subtilis Sfp phosphopantetheinyl transferase | Q9F4F7 | Biochemical Sfp PPTase activity, qHTS | Potency, µM, without a hit: max response, negative = inhibition, most hits filed as inhibitors | actives 3.5% (n = 310,000); active = well fitted inhibition curve with a large enough effect; inconclusive = small, poorly fitted or top-dose-only effect, or another doubt; inactive = no such curve, though single readings can be large or run the other way;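 note: the enzyme is Sfp with the accession as filed and its product quenches rhodamine fluorescence; potency is the fitted concentration of half-maximal effect; 0% = enzyme reaction without inhibitor and -100% = no enzyme wells; top concentration of the series not given in the record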
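With Hepes-Na pH 7.6 buffer containing 10 mM MgCl2, Sfp (15 nM) modified BHQ-2-YbbR (12.5 uM) using rhodamine-CoA (5 uM). Two reads 30 minutes apart at 525/598 nm yielded each well's rate.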
Six1-Eya2 inh = inhibitors of human Six1/Eya2 interaction; Q15475+O00167; AlphaScreen GST-Six1/His-Eya2 binding, biochemical; active compounds read low; control for the full effect not named in the record; activity change, % (test concentration not listed); actives 0.56% (n = 360,000); in the data active = activity change below about -65%; inconclusive = about -30% to -65%; inactive = above about -30%; note: % is set by controls: 0 for no effect and ±100 for the full control effect
Target sequence (O00167 whole entry, looked up): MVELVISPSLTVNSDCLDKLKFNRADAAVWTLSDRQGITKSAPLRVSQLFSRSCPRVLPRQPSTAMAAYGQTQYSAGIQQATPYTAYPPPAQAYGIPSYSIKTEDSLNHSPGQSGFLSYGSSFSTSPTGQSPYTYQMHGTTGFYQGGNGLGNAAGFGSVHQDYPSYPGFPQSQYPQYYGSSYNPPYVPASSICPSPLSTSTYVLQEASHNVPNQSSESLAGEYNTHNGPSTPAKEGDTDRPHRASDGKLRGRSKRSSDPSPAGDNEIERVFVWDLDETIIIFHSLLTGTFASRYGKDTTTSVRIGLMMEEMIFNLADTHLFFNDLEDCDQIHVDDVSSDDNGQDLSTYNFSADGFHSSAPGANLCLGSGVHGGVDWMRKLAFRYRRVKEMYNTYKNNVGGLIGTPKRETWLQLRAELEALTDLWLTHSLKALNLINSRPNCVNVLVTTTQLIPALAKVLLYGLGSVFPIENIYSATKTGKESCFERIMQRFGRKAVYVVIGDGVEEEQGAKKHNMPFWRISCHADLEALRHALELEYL
Target sequence (Q15475 whole entry, looked up): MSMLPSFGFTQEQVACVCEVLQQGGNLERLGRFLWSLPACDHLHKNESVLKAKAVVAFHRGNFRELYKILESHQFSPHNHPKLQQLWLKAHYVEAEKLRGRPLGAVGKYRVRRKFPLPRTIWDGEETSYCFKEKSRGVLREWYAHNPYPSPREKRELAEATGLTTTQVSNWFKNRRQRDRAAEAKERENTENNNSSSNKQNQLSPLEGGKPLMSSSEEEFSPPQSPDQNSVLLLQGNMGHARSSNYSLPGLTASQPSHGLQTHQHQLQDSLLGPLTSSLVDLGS
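Compounds are tested against tagged Six1 and Eya2 proteins bridged by glutathione donor and nickel acceptor beads; after a one-hour incubation at 37 °C without light, AlphaScreen emission is recorded.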
CtBP-E1A blk = inhibitors of CtBP/E1A interaction. AlphaScreen GST-E1A/His-CtBP binding, 1536-well; active compounds read low; control for the full effect not named in the record. activity change, % (concentration not given with the values). actives 0.49% (n = 340,000). AID 651724; in the data active means activity change below about -65%; inconclusive means about -30% to -65%; inactive means above about -30%; note: % is set by controls: 0 for no effect and ±100 for the full control effect
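Homogeneous bead-based format: GST-tagged E1A captured on glutathione donor beads, His-tagged CtBP on nickel acceptor beads; compounds precede bead addition by 2 h at 37 °C.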
TRPV1 PAM = human TRPV1 potentiation; actives 0.02% (n = 320,000); potentiation, % at 8.33 µM; TRPV1-expressing cells, Fluo-8 calcium influx, capsaicin EC20 potentiation; host cell line not named in the record; control for the full effect not named in the record; Q8NER1; active means potentiation above 80%; inconclusive means 30% to 80%; inactive means below 30%; note: 0% is about no effect
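Cells expressing TRPV1 were dye-loaded with Fluo-8 and read kinetically: 10 s baseline, 3 min after compound (agonist portion), then 2 min after EC20 capsaicin (allosteric enhancer portion). Calcium-bound dye fluorescence at 480/520 nm.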
Starred values were filed as active, the others as inactive; ? = inconclusive; . = not tested or not shown; & = joins results of further samples; [ ] = another dose, or the depositor's remark.

SMILES | D2 PAM | D2 agonist | PINK1 modulator | Sfp PPTase inh | Six1-Eya2 inh | CtBP-E1A blk | TRPV1 PAM
O=C(Nc1nnc(SCc2ccc(Cl)cc2)s1)C1CC(=O)N(Cc2ccccc2)C1 (stereo not given) | -6.9 | 1.0 | -0.5% | 16.5% | 12.1 | . | 23.7
COc1cccc(NC(=S)N(Cc2ccccn2)Cc2ccccc2Cl)c1 | -5.2 | -1.9 | -0.8% | 14.6% | 16.7 | 0.0 | -3.8
Cc1cccc(C)c1OCC(=O)N/N=C/c1cc2c(cc1[N+](=O)[O-])OCO2 | 0.8 | -0.4 | 0.6%[38.3 µM] | -9.6% | -11.8 | -11.4 | 7.2
COC(=O)c1ccc(Nc2nc(-c3ccncc3)nc3ccccc23)cc1 | -8.8 | 0.8 | 1.1% | -13.5% | -11.0 | ? | 1.6
Cc1cccc(N2CCN(C(=O)c3ccc(NS(=O)(=O)c4c(C)noc4C)cc3)CC2)c1C | -4.3 | -0.3 | 2.2% | 9.4% | -1.3 | -0.3 | 13.0
CCS(=O)(=O)N1CCCC(C(=O)NCCCN(C)Cc2ccccc2)C1 (stereo not given) | -3.2 | -2.6 | -3.5% | 18.0% | 0.3 | 0.0 | 6.9
CCCC1=NN2C(=N)/C(=C\c3ccc(SCc4ccco4)o3)C(=O)N=C2S1 | -19.7 | -6.2 | 5.0% | 56.2µM* | -23.5 | -19.7 | 1.7
O=C(Oc1ccc2cc(Br)ccc2c1)c1cccnc1 | 9.2 | -1.8 | -1.8%[38.3 µM] | 0.2% | 3.5 | 8.5 | -6.1
CCOc1ccccc1NC(=O)c1cccc(NC(=O)CC(c2ccccc2)c2ccccc2)c1 | -5.7 | 1.9 | 1.2%[38.3 µM] | 22.6% | -2.5 | 2.0 | 19.4
CCCNC(=O)Nc1ccc(F)c(Cl)c1 | -1.7 | 1.4 | -0.1% | 5.7% | 9.1 | -1.0 | -1.2
C=CCn1c(SCC(C)=O)nnc1-c1ccc2ncccc2c1 | -4.0 | -4.1 | -0.5% | 5.1% | 12.9 | 0.0 | 6.8
Cc1ccc(N/C=C(\C#N)c2ccc(OCCCF)cc2)cc1 | -13.2 | -2.8 | 8.4% | 26.1% | -12.9 | -0.4 | -2.9
CN(C)CCCNC(=S)Nc1ccc(-c2ccccc2)cc1 | -20.6 | -5.0 | 1.1% | 6.4% | -4.4 | -1.5 | 11.3
CCOc1ccc(C(=O)Nc2nccs2)cc1[N+](=O)[O-] | -12.6 | 2.6 | 2.5% | 17.4% | -16.0 | 0.3 | 0.9
FC(F)(F)COc1cc(-c2nnc(SCc3ccccc3)n2Cc2ccco2)cc(OCC(F)(F)F)n1 | -13.1 | -12.0 | 0.4% | 16.8% | 3.9 | 20.0 | ?
CC(=O)c1c(C)[nH]c(C(=O)Nc2cc(S(=O)(=O)N(C)C)ccc2C)c1C | -15.6 | 3.7 | 2.1% | 79.4µM* | 4.8 | . | -0.6
CC1CCCCC1NC(=O)COC(=O)c1ccc2ncsc2c1 (stereo not given) | -1.1 | 1.0 | 0.0% | . | 0.5 | 0.1 | 2.2
CNC(=O)c1cc(OCC(F)(F)F)ccc1OCC(F)(F)F | -4.2 | -5.3 | -0.9% | 22.3% | 16.5 | 21.9 | 4.7
N#C/C(=C\c1ccc2c(c1)OCCO2)C(=O)Nc1nccs1 | -10.2 | -4.0 | 0.5% | 18.3% | -22.2 | 0.0 | -2.2
Cc1ccc(CNC(=O)C2CCC(=O)N(Cc3ccccc3F)C2)s1 (stereo not given) | -13.1 | -0.1 | -1.0% | 7.9% | 10.5 | 0.0 | -5.5
Cc1c(CCC(=O)O)c(=O)oc2cc(OCc3ccccc3F)ccc12 | -5.4 | -6.3 | 0.4% | 30.8%[activator] | -8.9 | -12.1 | 13.2
C/C(=N\NC(=O)COc1ccc(C(C)(C)C)cc1)c1ccccc1 | -18.8 | 0.8 | 0.3% | -5.8% | -7.1 | -5.3 | -2.3
CNC(=S)N1CCN(C(c2ccccc2)c2ccccc2)CC1 | -0.7 | 0.7 | -1.5% | 14.8% | -6.7 | 2.9 | -15.2
CCC(NC(=O)C1CCCC1)c1ccccc1 (stereo not given) | -6.4 | 4.6 | -0.8% | . | -0.5 | -1.3 | .
Cc1cccc(C)c1NC(=O)C1(N(Cc2ccco2)C(=O)Cn2nnnc2N)CCCCC1 | 7.3 | -6.6 | 4.1% | 10.1% | -3.9 | 2.3 | 6.5
COc1cccc(/C=N/N2CCN(Cc3ccccc3)CC2)c1O | -9.8 | -1.7 | -1.4% | 22.8% | -10.4 | -2.9 | 2.4
CC(C)c1ccc(C(=O)N2CCCCC2c2cc(C(=O)Nc3ccncc3)no2)cc1 (stereo not given) | -24.4 | -4.0 | 1.6% | . | 0.7 | -3.4 | .
O=C(Nc1ccc(Cl)cc1)c1csc([C@@H]2O[C@H](CO)[C@@H](O)[C@H]2O)n1 | 0.0 | -2.5 | 1.1% | . | -1.1 | 0.5 | .
O=C(NCc1cc2ccccc2[nH]1)c1ccccc1F | -5.7 | -3.6 | -0.5% | -5.3% | 19.1 | -19.5 | -0.8
CC(C(=O)Nc1ccc(O)cc1C(=O)O)N1C(=O)/C(=C\c2cccs2)SC1=S (stereo not given) | -3.6 | -0.9 | 3.1% | 22.4µM* | -26.6 | . | 12.6
O=C(COC(=O)C1CC(=O)N(Cc2ccccc2)C1)Nc1ccc(Cl)cc1F (stereo not given) | -5.4 | 1.4 | -0.2% | -0.9% | 0.8 | -1.0 | -3.3
COc1ccccc1/C=N/OC(=O)c1ccc(F)cc1 | -6.3 | -4.6 | 6.7% | -3.7% | 11.6 | 24.0 | -16.3
CN1C(=O)c2ccc(NC(=O)CCS(=O)(=O)c3ccccc3)cc2C1=O | 1.7 | 1.3 | 1.8% | 2.7% | -14.9 | -12.4 | -19.7
CCOc1cc(Br)c(CC(=O)NC2CCCCCC2)cc1OCC | 0.4 | 1.6 | 10.5% | 6.7% | 10.8 | 5.8 | -12.7
O=C(NCC1CC1)[C@@H]1C[C@H]1[C@@H](NP(=O)(c1ccccc1)c1ccccc1)c1ccccc1 | -3.2 | -2.6 | 1.6% | -11.3%&6.1% | 9.2 | -2.2 | 16.7
COc1ccc(CCN2C(=NC(=O)CC(C)C)SC3CS(=O)(=O)CC32)cc1OC (stereo not given) | 0.2 | 0.2 | -0.7% | -6.7% | -0.8 | . | 3.8
COc1ccc(-c2cc(=O)oc3cc(OC(=O)C4CCCCC4)c(Cl)cc23)cc1 | 2.9 | 4.2 | 1.7% | ? | 2.9 | 8.4 | -3.7
CCc1ccccc1NC(=S)N1CCN(c2cccc(OC)c2)CC1 | -8.6 | -0.8 | -0.9% | 20.1% | -13.9 | -1.1 | -6.8
Cc1cccc(Nc2nc3c(s2)CCCC3)c1 | -18.4 | -6.1 | ? | -5.3% | ? | 21.8 | -6.0
CCOc1ccc(N2C(=O)/C(=C/c3cccs3)N(CC(=O)OC)C2=S)cc1 | -0.1 | -0.5 | 23.5%[38.3 µM] | 8.5% | 0.6 | 0.7 | -0.9
Cc1cccc2sc(NC(=O)C3CC3)nc12 | -4.4 | 0.8 | 1.1% | 2.4% | 6.3 | 6.7 | -7.5
O=C(CCNS(=O)(=O)c1cccc2nonc12)NC1CCCCC1 | -6.5 | -0.7 | 0.2% | 18.2% | -1.7 | 2.5 | 0.2
CCCNC(=O)c1cc(C2CCCN(C(=O)c3ccc(OC)cc3)C2)on1 (stereo not given) | -5.1 | -4.3 | -0.5% | . | 11.3 | 3.4 | .
C=CCNC(=O)/C=C/c1c(F)cccc1Cl | -4.5 | 0.9 | 0.1% | 4.5% | 6.5 | 1.7 | -20.7
CS(=O)(=O)N(CCc1ccccc1)CC(=O)N1CCN(Cc2ccccc2)CC1 | -15.9 | -3.3 | 0.2% | 12.5% | -1.8 | -0.1 | -15.9

Limited to TRPV1 PAM, CtBP-E1A blk and Sfp PPTase inh, for some of the entries so far:
molecule	TRPV1 PAM	CtBP-E1A blk	Sfp PPTase inh
C=CCn1c(SCC(C)=O)nnc1-c1ccc2ncccc2c1	6.8	0.0	5.1%
Cc1ccc(N/C=C(\C#N)c2ccc(OCCCF)cc2)cc1	-2.9	-0.4	26.1%

(more compounds)
SMILES | D2 PAM | D2 agonist | PINK1 modulator | Sfp PPTase inh | Six1-Eya2 inh | CtBP-E1A blk | TRPV1 PAM
Cc1ccc2nc(N3C(=O)C(O)=C(C(=O)c4ccco4)C3c3cccs3)sc2c1 (stereo not given) | -10.1 | -1.4 | -2.3%[38.3 µM] | ? | -10.4 | -19.4 | -18.8
O=C(CSc1nnc(CNC(=O)c2cccc(C(F)(F)F)c2)o1)NC1CCCCC1 | -15.9 | 0.6 | 1.1% | 7.6% | 10.3 | 0.0 | 18.4
Cn1cc(/C=N/n2cnc3scc(-c4ccccc4)c3c2=O)c2ccccc21 | 0.1 | -2.2 | 5.4% | -3.0% | -7.7 | -1.1 | 13.2
Cn1cccc1C(=O)NC(=O)COC(=O)c1cc([N+](=O)[O-])ccc1Cl | 28.0 | 3.8 | -0.5% | -10.5% | -7.1 | 0.0 | ?
CCC(C)(C(=O)NC1CCCC1)N(CC1CCCO1)C(=O)c1ccc2c(c1)OCO2 (stereo not given) | -10.5 | -4.3 | -4.6% | 12.0% | 4.0 | 6.8 | -3.2
CC(=O)Nc1c(O)nc(SCC(=O)Nc2ccc(C(C)=O)cc2)[nH]c1=O | -8.5 | 0.8 | -0.2%[38.3 µM] | -25.3% | -1.8 | -14.3 | 2.5
CCOC(=O)C1(Cc2cccc(OC)c2)CCCN(Cc2nccn2CC)C1 (stereo not given) | -5.8 | -2.9 | -0.9% | 11.0% | 1.5 | -6.9 | -3.8
CCOC(=O)C1=C(C)NC(C)=C(C(=O)OCC)C1c1cn(-c2ccccc2)nc1-c1ccco1 | -3.9 | -1.9 | 7.2% | 25.6% | 6.1 | 7.6 | -5.5

Compound profiles, as listed above. Order of screens: D2 PAM, D2 agonist, PINK1 modulator, Sfp PPTase inh, Six1-Eya2 inh, CtBP-E1A blk, TRPV1 PAM
Entry for C/C(=N\NC(=O)COc1ccc(C(C)(C)C)cc1)c1ccccc1 = -18.8, 0.8, 0.3%, -5.8%, -7.1, -5.3, -2.3
Entry for Cc1cccc(Nc2nc3c(s2)CCCC3)c1 = -18.4, -6.1, ?, -5.3%, ?, 21.8, -6.0
Entry for CS(=O)(=O)N(CCc1ccccc1)CC(=O)N1CCN(Cc2ccccc2)CC1 = -15.9, -3.3, 0.2%, 12.5%, -1.8, -0.1, -15.9

Screens (PubChem)
